High-throughput results: PubChem, National Center for Advancing Translational Sciences (NCATS)
TRPV1 potentiator: human TRPV1 potentiation | Q8NER1 | TRPV1-expressing cells, Fluo-8 calcium influx, capsaicin EC20 potentiation; host cell line not named in the record; control for the full effect not named in the record | potentiation, % at 8.33 µM | 320,000 tested, 0.02% active | AID 540277; active means potentiation above 80%; inconclusive means 30% to 80%; inactive means below 30%; note: 0% is about no effect
Target sequence (Q8NER1 whole entry, looked up): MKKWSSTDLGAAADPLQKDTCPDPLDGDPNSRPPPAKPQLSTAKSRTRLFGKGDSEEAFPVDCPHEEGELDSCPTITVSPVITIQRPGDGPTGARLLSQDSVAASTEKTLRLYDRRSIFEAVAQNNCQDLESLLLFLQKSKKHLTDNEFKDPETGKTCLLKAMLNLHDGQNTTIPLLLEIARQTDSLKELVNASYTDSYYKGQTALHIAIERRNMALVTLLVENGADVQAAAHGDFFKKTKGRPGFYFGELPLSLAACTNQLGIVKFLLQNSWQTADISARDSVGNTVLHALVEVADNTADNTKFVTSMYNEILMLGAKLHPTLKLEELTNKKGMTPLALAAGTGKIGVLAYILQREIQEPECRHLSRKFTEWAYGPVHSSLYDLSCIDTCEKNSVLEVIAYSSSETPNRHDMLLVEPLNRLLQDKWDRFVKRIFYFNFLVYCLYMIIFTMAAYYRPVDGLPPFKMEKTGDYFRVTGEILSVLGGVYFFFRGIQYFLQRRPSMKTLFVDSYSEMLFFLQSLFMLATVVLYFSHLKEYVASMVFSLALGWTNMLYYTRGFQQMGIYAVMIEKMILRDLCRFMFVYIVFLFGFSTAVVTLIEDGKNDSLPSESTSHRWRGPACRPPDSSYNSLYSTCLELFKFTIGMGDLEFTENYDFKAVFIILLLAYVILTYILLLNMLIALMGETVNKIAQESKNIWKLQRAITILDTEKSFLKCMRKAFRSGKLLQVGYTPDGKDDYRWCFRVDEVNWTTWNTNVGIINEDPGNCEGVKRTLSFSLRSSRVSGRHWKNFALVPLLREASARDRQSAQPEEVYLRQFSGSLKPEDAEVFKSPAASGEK
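Cells expressing TRPV1 were dye-loaded with Fluo-8 and read kinetically: 10 s baseline, 3 min after compound (agonist portion), then 2 min after EC20 capsaicin (allosteric enhancer portion). Calcium-bound dye fluorescence at 480/520 nm.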
gsp ag: activates gsp, the McCune-Albright syndrome mutation | 340,000 tested, 0.13% active | AID 624287 | gsp mutant cells, cAMP HTRF, 30 min; control for the full effect not named in the record | Potency, µM (doses to about 76.9 µM), without a hit: top-dose activation (cAMP increase), usual class: activators; active = well fitted activation curve with a large enough effect; inconclusive = small, poorly fitted or top-dose-only effect, or another doubt; inactive = no such curve, though single readings can be large or run the other way; cell line not stated here;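 note: phosphodiesterase inhibitor Ro 20-1724 added with compounds to block cAMP breakdown; potency is the fitted concentration of half-maximal effect; nearly all actives have a fitted effect of over 60% in size; about a fifth of the inactives were tested at one dose only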
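Cells stably selected in G418 were plated at 2000/well, grown 16-24 hr, then given compounds in DMSO with the PDE inhibitor […] (300 uM solution added) for 30 min at 37C; cAMP was read by HTRF.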
Sfp inh: blocks B. subtilis Sfp PPTase activity. Q9F4F7. Biochemical Sfp PPTase activity, qHTS. Potency, µM, for the others: max response, negative = inhibition, actives largely listed as inhibitors. 310,000 tested, 3.5% active. AID 1490; active = well fitted inhibition curve with a large enough effect; inconclusive = small, poorly fitted or top-dose-only effect, or another doubt; inactive = no such curve, though single readings can be large or run the other way;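 note: the enzyme is Sfp with the accession as filed and its product quenches rhodamine fluorescence; potency is the fitted concentration of half-maximal effect; 0% = enzyme reaction without inhibitor and -100% = no enzyme wells; top concentration of the series not given in the record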
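With Hepes-Na pH 7.6 buffer containing 10 mM MgCl2, Sfp (15 nM) modified BHQ-2-YbbR (12.5 uM) using rhodamine-CoA (5 uM). Two reads 30 minutes apart at 525/598 nm yielded each well's rate.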
Menin MLL FP FL: menin-MLL binding inhibition, fluorescein peptide | Fluorescence polarization, fluorescein-MLL peptide displacement from menin | FP activity change, % at 61.4 µM | 290,000 tested, under 10 active | AID 1766; inconclusive = falling polarisation curve, or a change in total fluorescence; inactive = total fluorescence flat and polarisation flat or rising; no compound was filed as active; the % refers to the polarisation; negative = inhibition;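 note: % of control where 0% means no effect; inhibitors lower the polarisation; unlabelled MLL peptide was the positive control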
gsp antag: antagonizes gsp, the McCune-Albright syndrome mutation; gsp-mutant cells, cAMP HTRF, 30 min; control for the full effect not named in the record; Potency, µM (top dose mostly 76.9 µM), inactives show top-dose activity change, negative = inhibition, usual class: inhibitors; 340,000 tested, 0.4% active; AID 624288; active = falling curve of any shape with a large fitted effect; inconclusive = falling curve, mostly with a smaller effect; inactive = flat or rising curve; cell line not stated here;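 note: intracellular cAMP measured with PDE inhibitor Ro 20-1724 present during compound exposure; potency is the fitted concentration of half-maximal effect; % is set by controls: 0 for no effect and ±100 for the full control effect; nearly all actives have a fitted effect of over 65% in size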
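HTRF cAMP measurement after 30 min RT detection following 30 min, 37C compound treatment alongside […] (added as 300 uM solution) in G418-selected cells seeded at 2000/well and grown 16–24 h.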
TRPML1 inh: blocks the human TRPML1 channel | 390,000 tested, 0.02% active | TRPML1-inducible cells, Ca2+ dye fluorescence, FDSS; hits give low values; inhibition of EC80 agonist-evoked calcium signal | activity change, negative = inhibition, % (concentration not given with the values) | Q9GZU1; in the data active means activity change below about -50%; inconclusive means about -30% to -50%; inactive means above about -30%;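 note: stimulus is agonist 54-4 at its EC80 concentration; % is set by controls: 0 for no effect and ±100 for the full control effect; compound concentration not given in the record; the text of the record puts the active cut at -80%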
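TRPML1-DL cells, Tet-induced overnight (~16 h, 37 °C) at 1,500 cells/well, were loaded with Ca8 no-wash dye plus quencher for 45-90 min at room temperature. Compounds were pinned during FDSS kinetic reading; agonist 54-4 at EC80 (4 uM final) then added.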
ClpP mod: qHTS Assay for Activators of ClpP; AID 651965, 2013; purified B. subtilis ClpP, FRET peptide cleavage, 20 min; ATP-dependent Clp protease proteolytic subunit (Bacillus subtilis (strain 168)), P80244; Potency, µM (series often up to 57.5 µM), inactives show top-dose activity change, negative = active; 340,000 tested, 1.9% active; active = well fitted falling curve with a large enough effect; inconclusive = small, poorly fitted or top-dose-only effect; inactive = no such curve, though single readings can be large or run the other way; note: potency is the fitted concentration of half-maximal effect; the source files actives as falling curves though it sought activators and does not explain the sign; nearly all actives have a fitted effect of over 65% in size; many hits overshoot -100%
Target sequence (P80244 whole entry, looked up): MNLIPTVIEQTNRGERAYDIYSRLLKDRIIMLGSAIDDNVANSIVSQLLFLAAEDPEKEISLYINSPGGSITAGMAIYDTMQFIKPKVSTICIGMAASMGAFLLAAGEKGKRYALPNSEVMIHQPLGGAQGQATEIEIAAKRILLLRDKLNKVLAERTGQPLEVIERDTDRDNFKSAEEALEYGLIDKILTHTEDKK
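ClpP 10 microg/mL final, pH 8 Tris/KCl buffer with BSA, glycerol, Tween-20; compound pinned in; FRET-FV substrate; RT 20 min; Ex320/Em430; ΔFRET vs ADEP 5.8 microM, DMSO, no enzyme.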
The depositor's hits bear a star; u = inconclusive; x = not tested or not shown; & = joins results of further samples; [ ] = dose if it differs, or a comment.

SMILES	TRPV1 potentiator	gsp ag	Sfp inh	Menin MLL FP FL	gsp antag	TRPML1 inh	ClpP mod
CCCNc1nc(Cl)nc(NC(C)(C)C)n1	-7	-8%[15.4 µM]	12%	-2.8	x	-10	x
CCOP(=O)(OCC)C(Nc1ccccc1)c1ccco1 (stereo not given)	-8	-1%	9%	2.3	6%	-9	-1.9%
Cc1cc(=O)oc2cc(NC(=O)c3cc4ccccc4o3)ccc12	18	x	-7%	3.7	x	x	x
Cc1ncccc1C(=O)N1CCCC(CNC(=O)C2(c3ccc(Cl)cc3)CC2)C1 (stereo not given)	1	28%	5%	0.9	7%	12	1.1%
CCN(CC)C(=O)CSc1nnc(CSc2ncccn2)n1C	17	u	11%	-0.2	-10%	x	-1.0%
CCOc1ccc(CCNC(=O)CS(=O)Cc2nc(-c3ccc(C)cc3)oc2C)cc1OCC (stereo not given)	1	-22%	2%	x	2%	1&1	-2.2%&1.6%
Cc1nn(CC(=O)Nc2ccc3c(c2)nc(CN2CCCCC2)n3C)c(=O)c2ccccc12	14	-31%[inhibitor]	-4%	-0.4	0%	7	-3.6%
CCN(CC(=O)Nc1ccc(C(=O)OC)cc1)C1CCCCC1	-16	-18%	6%	-5.5	5%	-9	x
COc1ccc(S(=O)(=O)N(C)CC(=O)NCc2ccc3c(c2)OCO3)cc1	-13	10%	19%	-0.5	-1%	0	x
O=C(N/N=C/c1cc([N+](=O)[O-])ccc1Cl)c1cnccn1	3	-17%[15.4 µM]	5%	-2.2	0%	1	x
COC(=O)C1=C(N)Oc2cc(C)n(Cc3cccnc3)c(=O)c2C1c1cc(OC)ccc1OC (stereo not given)	1	7%	9%	1.7	3%	-1	-2.1%
Cc1snc(SCC(=O)c2ccc([N+](=O)[O-])cc2)c1C#N	7	11%[15.4 µM]	20µM*	-1.0	0%	-5	x
COc1ccccc1NC(=O)c1sc2ncn(Cc3cccc4ccccc34)c(=O)c2c1C	u	-53%[inhibitor]	-12%	-2.5	10%	-14	u
COCCCN1C(=O)C(CC(=O)NCC2CCCCC2)CC(C(=O)N2CCOCC2)=C1C (stereo not given)	x	-3%	x	x	x	21	-1.0%
CN(Cc1ccc(Cl)s1)C(=O)CNC(=O)CNC(=O)c1ccc(Cl)cc1Cl	-1	1%	x	x	0%	-6	1.1%
COC(=O)c1ccccc1NC(=S)N1CCN(c2ccccc2)CC1	-6	u	0%	-0.5	-19%	-12	-0.5%
CCOc1ccc(OCC(=O)N2CCN(S(=O)(=O)c3ccccc3)CC2)cc1	x	-41%[inhibitor]	x	x	x	2	-2.9%
COCCN(Cc1ccccc1)C(=O)c1cccc(S(=O)(=O)N2CCCc3ccccc32)c1	-13	-8%	x	x	-14%	7	-0.6%
COc1ccc(NC(=S)SC)cc1OC	2	-9%	u	8.4	-3%	9	1.6%
Cc1cc(C([O-])=C(C(=S)Nc2ccc(F)cc2)[n+]2ccccc2)c(C)n1-c1ccc(F)cc1	x	-22%	x	x	-20%	-5	-0.7%
CC1(C)CC2CC(C)(CN2S(=O)(=O)c2ccc(C(=O)Nc3cccc(S(=O)(=O)N4CCOCC4)c3)cc2)C1 (stereo not given)	-2	-14%	1%	0.0	-5%	-22	u
O=C1c2cc(N3CCCC3)c([N+](=O)[O-])cc2C(=O)N1c1ccccc1	21	-6%	-1%	-1.4	0%	18	-1.1%
CC(=O)Nc1ccc(C(=S)NCCCO)cc1	-6	-7%[15.4 µM]	u	0.3	1%	15	x
COc1ccc(C2C(C#N)=C(N)OC(C(C)(C)C)=C2C#N)cc1OC (stereo not given)	14	-33%[inhibitor]	6%	2.5	0%	11	-10%
CCOC(=O)C1(CC2CCCCO2)CCN(C(=O)Nc2ccccc2SC)CC1 (stereo not given)	-4	-29%	20%	-1.1	-2%	-5	x

Retrieved one by one from the list above, 2 records:
SMILES	TRPV1 potentiator	gsp ag	Sfp inh	Menin MLL FP FL	gsp antag	TRPML1 inh	ClpP mod
COc1ccc(S(=O)(=O)N(C)CC(=O)NCc2ccc3c(c2)OCO3)cc1	-13	10%	19%	-0.5	-1%	0	x
COc1ccc(NC(=S)SC)cc1OC	2	-9%	u	8.4	-3%	9	1.6%

Next part.
SMILES	TRPV1 potentiator	gsp ag	Sfp inh	Menin MLL FP FL	gsp antag	TRPML1 inh	ClpP mod
CCn1ncc(Br)c1C(=O)Nc1sc2c(c1C(N)=O)CCC2	-5	1%	7%	-0.9	1%	11	-3.9%
COC(=O)c1nn(-c2ccc(OC)cc2)c(=O)cc1Oc1cccc(Cl)c1	5	-29%	15%	4.5	-4%	6	-0.1%
COCCN(CCOC)S(=O)(=O)c1ccc(C(=O)Nc2nc(C)c(C(C)=O)s2)cc1	2	-27%	7%	0.2	-6%	0	1.2%
Cc1c(NC(=O)C2CCN(S(=O)(=O)c3cccs3)CC2)c(=O)n(-c2ccccc2)n1C	14	5%	4%	1.0	6%	-2	-0.8%
Cc1ccc(CN(C)C(=O)c2ccc(S(=O)(=O)N3CCCCCC3)cc2)o1	-19	-27%[15.4 µM]	x	x	-7%	-4	x
CCOc1ccc(N=Cc2ccc(N(C)C)cc2)c(O)c1	x	18%	x	x	x	7	-11%
CCOC(=O)c1c(-c2ccccc2)oc2ccc(OCC(=O)O)cc12	17	18%	-5%	3.0	-13%	15	3.5%
COc1ccc(-c2nc(C)c(C(C)=O)n2O)cc1OC	5	-23%	-12%	0.2	-9%	-11	-0.6%
Cn1nccc1CNC(=O)c1ccnn1C	-23	u	-12%	x	11%	3	-1.7%
O=C(COC(=O)c1cccnc1SCC(=O)NCc1ccccc1)NCc1ccccc1	5	u	3%	1.4	20%	-3	-4.7%
CCN(CC(=O)Nc1c(F)cccc1F)C(=O)c1cccc(-n2cccc2)c1	-6	-1%[15.4 µM]	x	x	1%	-14	x
BrC(=C\c1ccccc1)/C=N/Nc1nc(N2CCOCC2)nc(N2CCOCC2)n1	-7	3%[15.4 µM]	-5%	0.4	u	3	x
O=C(CCn1cncn1)N1CCCC(N2CCN(c3ccc(F)cc3)CC2)C1 (stereo not given)	9	-61%[inhibitor]	15%	x	0%	-14	2.3%
COc1ccc(OCCOc2ccc(/C=C3\C(=N)N4N=C(C)SC4=NC3=O)cc2)cc1	8	13%	x	x	4%	5	0.3%
Cc1ccc(NC(=O)CSc2nc(N)c3cc4c(nc3n2)CCCC4)cc1	9	u	4%	13	-19%	17	-13%
COc1ccc(N2CCN(C(=O)c3cccnc3SCc3cccc(Br)c3)CC2)cc1	-3	9%[15.4 µM]	7%	-1.4	-14%	14	-2.3%
COc1ccc(/C=C/C(=O)Oc2cccc(/C=N/NC(=O)COc3c(C)cccc3C)c2)cc1	7	22%	u	-0.1	1%	0	-3.1%
O=S(=O)(NCc1ccccc1)c1ccc(-c2cnc(C3CC3)o2)cc1	11	3%	2%	x	-5%	-1&-4	4.0%&4.3%
O=C(CN1CCN(S(=O)(=O)c2ccc(Br)cc2)CC1)Nc1ccc(F)cc1F	-37	-45%[inhibitor]	-1%	2.1	-5%	48	-17%
CN(Cc1ccon1)C(=O)CC1C(=O)NCCN1Cc1ccc(Cl)c(F)c1 (stereo not given)	15	-6%	2%	x	14%	-12	-2.5%
Cc1cccc(OCCn2c(=O)n(C)c3ccccc32)c1	8	-161%[inhibitor]	-21%	1.7	4%	8	0.2%
CCCCNc1nc2c(-c3ccccc3)nnn2c2ccccc12	x	4%	9%	2.2	10%	13	3.4%
Brc1ccc(Cn2c(-c3ccc(Br)o3)nc3ccccc32)o1	0	-36%	u	5.8	-28%	49	7.5%
CN(CCNC(=O)c1cc2c(=O)n(C)c3ccccc3c2n1C)Cc1ccccc1	8	-7%	-11%	1.5	1%	29	4.6%
O=C(c1cccc([N+](=O)[O-])c1)c1ccc2c(c1)C(=O)N(c1c[nH]c(=O)[nH]c1=O)C2=O	11	x	13%	-4.5	x	x	x
(cont.)
SMILES	TRPV1 potentiator	gsp ag	Sfp inh	Menin MLL FP FL	gsp antag	TRPML1 inh	ClpP mod
O=C(NNC(=O)c1cc(-c2ccccc2)nc2ccccc12)Nc1cccc(Cl)c1	10	11%	18%	2.1	u	-14	-7.1%
Cc1nn(-c2ccccc2)c(C)c1C(=O)OCC(=O)N(C)c1c(N)n(Cc2ccccc2)c(=O)[nH]c1=O	-1	21%	x	x	3%	9	-0.7%
Cc1onc(-c2c(Cl)cccc2Cl)c1C(O)c1ccccc1 (stereo not given)	6	-9%[15.4 µM]	14%	-2.7	1%	-2	-1.5%
Cc1ccc(C(=O)Nc2cccc3ccccc23)cc1	-5	20%	12%	8.2	-3%	-10	-0.6%
Cc1cc(C)c(NC(=O)COC(=O)/C=C/c2cccc(C(F)(F)F)c2)c(C)c1	-2	-30%	-11%	3.0	-3%	-9	0.9%
COc1ccccc1C(=O)Nc1cc2c(cc1C(=O)O)OCCCO2	11	-4%	31%[activator]	-1.9	-5%	-17	x
O=C(O)c1cc(-c2cccc([N+](=O)[O-])c2)n[nH]1	2	-6%[15.4 µM]	13%	-0.3	6%	-3	-0.6%
CCn1cc(C(=O)NCc2ccco2)c(=O)c2ccc(C)nc21	-2	10%	1%	1.3	11%	2	x
O=C1C2C3C=CC(CC3)C2S(=O)(=O)C2C3C=CC(CC3)C12 (stereo not given)	x	-3%	x	x	x	11	0.8%
CCCCc1nnc(NC(=O)c2cccc(S(=O)(=O)N3CCN(C)CC3)c2)s1	u	1%	6%	x	-14%	-6	-1.5%
COc1ccc(CCN(Cc2cccs2)S(=O)(=O)c2ccc(C(=O)O)cc2)cc1OC	5	-11%	3%	0.0	-25%	9	0.6%
CCCn1c(SCC(=O)Nc2nnc(CC)s2)nnc1-c1ccco1	5	u	-3%	0.9	-13%	-9	1.9%
COc1ccc(Cn2nnnc2CN2CCC(c3nc4ccccc4s3)CC2)cc1	7	u	-12%	-0.2	u	70	-2.6%
Cc1ccc(OCCn2c(=O)sc3ccccc32)cc1	0	0%	-3%	-0.4	-1%	-1	-0.4%
CCOC(=O)NCC(C)(C)CNC(=O)OCC	9	8%	9%	3.4	7%	-3	0.9%
O=C(COc1cccc2ccccc12)N/N=C/C=C/c1ccccc1	-1	-81%[inhibitor]	8%	4.9	-11%	-10	0.4%
